# PrP 5UTR inh: inhibition of PrP 5' UTR reporter expression. inhibition, % (test concentration not listed). actives 0.35% (n = 340,000). cell-based PrP 5' UTR mRNA reporter, plate reader;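 active means every replicate at 50% or more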;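 further: 0 = median of the neutral control wells; tested in H4 reporter cells; numbers are from one replicate; inactives centre near -14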
# Mtb hypoxia inh: PubChem AID 1159583. actives 0.1% (n = 300,000). fluorescence inhibition, % (no concentration beside the values). M. tuberculosis hypoxia-regulated fluorescent reporter, fluorescence;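 active means 35 to 45% if threefold the growth effect, above 45% if 1.5-fold the growth effect; inactive means the rest, general growth blockers included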;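 further: wells of about 50 µL received 100 nL stock; 0% = vehicle wells and 100% = reference inhibitor wells; whole bacteria with a GFP reporter of the hypoxia response; strong numbers were not always called active; many hits fall short of the cut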
# Bead autofluor: flagged as autofluorescent in microsphere protease counterscreen. compound autofluorescence counterscreen, microsphere flow cytometry; hits give high values. fluorescence intensity (no concentration beside the values). actives 3.1% (n = 360,000);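 active means at least 3 SD above the mean of all compounds, about 16000 in these data; inconclusive means too few beads counted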;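 further: 100 nL of 1 mM stock went into each well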
# Sa RN4220 lethal: growth inhibition of S. aureus RN4220, primary screen, OD600. inhibition, % (test concentration not listed). 16 h. actives 0.33% (n = 330,000);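 active means z-score of -3 or lower and OD600 up to 0.18 on both plates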;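 further: plate controls were untreated cells for no effect and reference antibiotic for full effect; stock transfer was 100 nL into about 80 µL; one replicate is shown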
# BJeLR lethal: MLPCN primary cell-based screen for lethality selective to Ras in HRASV12 cells; BJeLR (HRASV12) viability, CellTiter-Glo ATP luminescence, 48 h; reference of the scale not given here; inhibition, % (concentration not given with the values); actives 0.17% (n = 300,000); AID 1554, 2009;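 active means replicate mean above 50%; inconclusive means above 50% but judged a plate artefact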;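 further: 50 nL library stock added to about 25 µL; numbers are from one replicate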
# ugtP null kill: growth inhibition of ugtP-null S. aureus, primary screen, RN4220 ugtP deletion, OD600; 16 h; some inactives read as strong as hits; growth inhibition, % (concentration not given with the values); actives 0.54% (n = 330,000);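 active means z-score under -3 and OD600 up to 0.15 on both plates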;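 further: plate controls were untreated wells for no effect and antibiotic for full effect; wells of about 80 µL received 100 nL stock; the first replicate is given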
# Mtb hypoxia inh growth: further read-out of Mtb hypoxia inh, marked with its call; growth inhibition, %; measured here: M. tuberculosis growth (absorbance);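 0% = vehicle and 100% = reference antibiotic; read after six days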
# * marks the source's active call; other numbers are inactive results; ? = inconclusive; nt = not tested or not shown.
SMILES,PrP 5UTR inh,Mtb hypoxia inh,Mtb hypoxia inh growth,Bead autofluor,Sa RN4220 lethal,BJeLR lethal,ugtP null kill
COc1ccc2c(c1)CC(C1(O)C(=O)N(C)c3ccccc31)C2=O (centres undefined),-12,2,10,3135,-12,2,-5
CN(Cc1cccs1)C(=O)COC(=O)CNC(N)=O,-13,3,-1,4521,4.4,-6,4
CCOC(=O)c1[nH]c2ccc(Cl)cc2c1NC(=O)/C=C/c1ccc2c(c1)OCO2,-7,7,-5,2071,4.4,8,-12
O=c1[nH]c(=O)n(Cc2ccco2)c(O)c1C=NCCCn1ccnc1,-12,15,9,2482,-1.3,3,2
COC(=O)c1ccccc1NC(=O)C1CCN(C(=O)c2cc(OC)cc(OC)c2)CC1,-6,2,5,8144,1.8,-7,0
Cn1cc(C(=O)NCc2ccccc2)c2ccccc21,-8,13,9,4303,-2.7,5,5
CC(=O)c1ccc(OCC(O)CN2CCN(S(=O)(=O)c3cccc(Br)c3)CC2)cc1 (centres undefined),-3,nt,nt,4056,nt,-11,nt
COc1cccc(N2C(=O)C3ON(c4ccccc4)C(c4cccs4)C3C2=O)c1 (centres undefined),16,1,-6,4376,0.2,8,3
Cc1cc(-c2onc(C)c2C(=O)N/N=C/c2ccccc2)no1,4,nt,nt,5809,nt,-4,nt
CC(C)N1CCc2c(sc(N)c2C#N)C1,-30,3,8,19341*,-1.3,0,-2
Cc1ccc(/C=C2\CCCC3=C2NC(=S)NC3c2ccc(C)cc2)cc1 (centres undefined),-13,-5,3,2023,1.3,-5,-2
CC(C)(C)c1ccc(CNc2ccc([N+](=O)[O-])cn2)cc1,-57,1,3,2024,-2.2,-9,-25
O=C(NCc1cccnc1)Nc1cc(Cl)cc(Cl)c1,-1,12,-7,4183,58,5,46
Cc1[nH]ccc(=O)c1OC1OC(CO)C(O)C(O)C1O (centres undefined),-19,13,12,4134,3.1,4,3
COc1cc2c(C(=O)N3CCN(C)CC3)c(C)n(C)c2cc1Br,-11,8,2,2687,-13,2,-1
CC(C(=O)NCc1ccco1)n1nc(-c2ccccc2)c2cc(Cl)ccc21 (centres undefined),-3,nt,nt,4321,-1.1,8,2
CN(CC(=O)NCc1ccc(F)cc1)Cc1ccc(Br)cc1,-21,21,4,4049,-2.9,-13,5
Cc1c(NC(=O)CCCCCN2C(=O)c3ccccc3C2=O)c(=O)n(-c2ccccc2)n1C,-3,4,3,2692,1.4,3,5
O=C(CSc1nnc2c(n1)[nH]c1ccccc12)Nc1ccc(N2CCOCC2)cc1,-6,12,-7,2985,6.6,-2,4
CCCCn1c(N)c(N(CCOC)C(=O)c2cc(-c3ccc(C)cc3)nc3ccccc23)c(=O)[nH]c1=O,-5,nt,nt,?,nt,-4,nt
Cc1[nH]c(C)c(S(=O)(=O)NCc2ccc(F)cc2)c1C(=O)N1CCCC1,-15,-8,-5,4177,4.7,-18,7
O=C(Nc1nccs1)c1ccc(S(=O)(=O)c2ccccc2)cc1,-19,nt,nt,5323,3.7,7,3
COc1cccc(-n2nc(C(N)=O)c(O)cc2=O)c1,-11,-7,6,2088,-0.6,-4,-2
Cc1ccc(C)c(NC(=S)NC(C)C(c2cccs2)N2CCOCC2)c1 (centres undefined),-21,15,12,5606,11,-4,-13
O=C(NC1CS(=O)(=O)CC1NCc1ccco1)c1ccccc1 (centres undefined),-17,nt,nt,4077,-4.4,-3,3
SMILES,PrP 5UTR inh,Mtb hypoxia inh,Mtb hypoxia inh growth,Bead autofluor,Sa RN4220 lethal,BJeLR lethal,ugtP null kill
Cc1ccc(S(=O)(=O)NCCN2CCOCC2)c(C)c1C,-3,10,3,2492,3.5,4,5
CC(=O)Nc1ccc(NC(=O)C2CCCN(c3ncccn3)C2)cc1 (centres undefined),-15,14,6,4477,3.0,-2,-2
O=c1c2c(nc3cc(-c4cccc(Cl)c4)[nH]n13)CCCC2,-53,18,23,4325,4.7,3,15
C=CCc1cccc2cc(C(=O)NCc3cccnc3)c(=O)oc12,-29,2,5,10185,5.3,-1,-2
CCN(CC)CCCNC(=O)c1ccc2c3n(nc2c1)-c1ccc(Cl)cc1CO3,-30,8,13,3657,1.9,11,-2
COc1ccc(OC)c(C(=O)CSc2nc3ncccc3[nH]2)c1,-15,-71,-4,6568,6.9,7,-7
CC1CCCCN1Cc1cccnc1 (centres undefined),-22,14,10,4471,-1.7,7,9
O=C(OCC(=O)N1CCN(C(=O)c2ccco2)CC1)c1ccc(Cl)c(Cl)c1,-29,17,11,3129,1.4,nt,-3
COc1ccc(NC(=O)Nc2ccc3nsnc3c2)cc1,-101,0,6,13228,0.2,-4,-6
CCOc1ccc(C(C)=O)cc1N1C(=O)C2C(C1=O)C1C=CC2C12CC2 (centres undefined),-15,5,4,12179,4.0,5,4
CCN(CC)c1ccc(/C=C/C(=O)C2C(=O)C=C(C)OC2=O)cc1 (centres undefined),-30,nt,nt,66487*,nt,6,nt
COc1ccc(CCNC(=O)Cc2ccc(OC)c(OC)c2)cc1OC,2,nt,nt,5607,3.0,9,-5
O=C1c2ccccc2C(=O)N1CCCCN(C(=O)c1cc([N+](=O)[O-])cc([N+](=O)[O-])c1)c1ccc(Cl)cc1,-9,nt,nt,6268,0.3,-10,-7
CCN1C(=O)C(C(=O)c2ccccc2)SC1=S (centres undefined),-24,6,10,4760,34,6,19
Cc1cc(C)cc(NS(=O)(=O)c2ccc(F)cc2)c1,-12,10,2,3495,7.8,1,6
CCCCC(=O)N1CC2(C)CN(C(=O)CCCC)CC(C)(C1)C2=O,-4,9,4,2988,5.2,3,3
Cc1ccc(C(=O)N[C@@H](C)CN2C3=NC[C@H](C(C)C)N3C[C@H]2Cc2ccc(O)cc2)cc1Br,-45,nt,nt,3546,nt,-6,nt
O=C(COc1ccc2ccccc2c1)NCC(=O)NN=Cc1ccco1,nt,8,1,nt,0.1,nt,4
CC1=CC2(O)OCCN(CCO)C2=CC1=O (centres undefined),5,6,5,4287,5.6,5,5
CCOCc1nnc(NC(=O)CCC2CCCCC2)s1,-13,3,-3,3185,2.8,3,11
COc1ccccc1NC(=O)CSc1nnnn1-c1ccc(F)cc1,-8,8,-2,nt,2.4,-1,1
Cc1ccc(N=c2sc(C)c(C)n2C)cc1,-39,17,8,2422,3.3,4,3
CC(C)Oc1cccc(C(=O)Nc2ccccc2N2CCOCC2)c1,-16,6,1,4241,1.1,0,4
CC1(C)Cc2c(sc(NC(=O)c3ccc(S(=O)(=O)N4CCCCCC4)cc3)c2C#N)C(C)(C)N1,-7,-5,-7,5063,12,2,24
COc1ccc(-n2nnnc2SCC(=O)c2ccc(OC)c(OC)c2)cc1,-29,16,6,10270,7.7,6,-4
SMILES,PrP 5UTR inh,Mtb hypoxia inh,Mtb hypoxia inh growth,Bead autofluor,Sa RN4220 lethal,BJeLR lethal,ugtP null kill
COc1ccc(-n2ccnc2SCC(=O)Nc2ccccc2)cc1,-17,nt,nt,2420,0.3,-5,4
COc1ccc(N=c2ssnc2Cl)cc1,-13,-1,5,3237,-2.4,-2,-2
COc1ccccc1CN1C(CC(=O)O)c2ccccc2S1(=O)=O (centres undefined),nt,2,1,nt,5.5,nt,5
COC(=O)C1=CN(Cc2ccc(OC)c(OC)c2)C=C(C(=O)OC)C1c1cccc(F)c1,-24,nt,nt,6217,nt,-4,nt
O=C(COC(=O)CN1C(=O)C2CC=CCC2C1=O)Nc1cc(C(F)(F)F)ccc1N1CCOCC1 (centres undefined),-8,4,4,8740,5.1,-8,7
O=C(c1ccc(F)cc1)N1CCN(C2=NS(=O)(=O)c3ccccc32)CC1,-3,-17,-2,4849,2.0,-15,-2
COc1ccc(CNS(=O)(=O)c2ccc3c(c2)CC(C)N3C(=O)C2CC2)cc1 (centres undefined),7,8,-3,5624,3.8,14,4
CCOc1cc(C=NNC(=O)CSc2nncn2C)ccc1OCc1cccc(C)c1,nt,9,11,nt,1.5,nt,6
Cc1ccc2cc(CN(CC3CCCO3)S(=O)(=O)c3cccc4nsnc34)c(=O)[nH]c2c1 (centres undefined),1,-2,5,10517,3.5,-7,-6
Cc1c(CNC(=O)C2CCC(=O)N(CCc3ccccc3)C2)cnn1C (centres undefined),0,3,-2,4202,5.0,-8,12
O=[N+]([O-])c1cc([N+](=O)[O-])c2cc(-c3cccnc3)[nH]c2c1,-50,13,8,5622,9.9,10,0
C[C@H]1CCC[C@@]2(O[C@H](CCO)C[C@H](O)[C@H]2O)O1,-11,nt,nt,2908,nt,-6,nt
COC(=O)c1cc(O)c(OCc2ccccc2)c(O)c1,-21,nt,nt,2397,-1.8,0,0
COC(=O)CCC(=O)Nc1ccc2oc3c(c2c1)CCCC3,-15,7,6,3719,1.3,7,19
CCOC(=O)c1c(NC(=O)CSc2nnc(C)c(=O)[nH]2)sc(C)c1C,nt,1,5,nt,7.1,-2,3
O=C(COc1ccc2oc(-c3ccccc3)cc(=O)c2c1)Nc1ccccc1,-42,-4,-15,2315,-9.8,-4,-4
COc1ccc(CCNC(=O)c2cc(-c3ccncc3)nc3ccc(S(=O)(=O)N4CCOCC4)cc23)cc1OC,-12,0,-9,4460,4.8,-8,11
O=C(Cn1cnc2c(cnn2-c2ccccc2)c1=O)N1CCOCC1,-9,8,7,5021,4.2,nt,4
CCOc1ccc(N(CC(=O)N2CCCCCC2)S(=O)(=O)c2ccc(F)cc2)cc1,-6,-13,-13,6415,0.4,-4,-6
CN(C)S(=O)(=O)c1ccc(NC(=O)CCCNC(=O)c2ccc(Cl)cc2)cc1,-9,-9,0,4517,-3.4,11,-5
COc1ccc(C(=O)NNC(=O)CN(C)S(=O)(=O)c2ccc(Cl)cc2)c(OC)c1OC,-16,12,7,?,2.3,1,4
O=S(=O)(c1ccc(Cl)cc1)N1CCC(n2cnc3cc(C(F)(F)F)ccc32)CC1,4,nt,nt,16517*,3.7,-3,-20
Cc1ccc(C)n1-c1nccc(-c2cccs2)n1,-8,7,3,21459*,0.2,-1,7
COc1ccc(-c2nc(NC(=O)Cn3cnnn3)sc2C)cc1,-22,10,6,4357,9.7,4,4
COc1cc(/C=C2/N=C(c3ccccc3F)OC2=O)cc(Cl)c1OS(C)(=O)=O,-29,5,9,20200*,4.6,1,4
SMILES,PrP 5UTR inh,Mtb hypoxia inh,Mtb hypoxia inh growth,Bead autofluor,Sa RN4220 lethal,BJeLR lethal,ugtP null kill
CC1CCN(c2nc(-c3ccccc3)c(C#N)c(=O)[nH]2)CC1,-9,13,8,6376,7.9,2,3
CCN(c1ccccc1)S(=O)(=O)c1ccc(C(=O)N2CCCC(C(F)(F)F)C2)cc1 (centres undefined),-25,-6,-5,4527,3.1,-9,-2
Nc1ccc(N2CCCCC2)c(S(=O)(=O)Nc2ccccc2Cl)c1,3,9,5,5091,8.4,-11,12
CC(C)n1nccc1NC(=O)COC(=O)c1ccc(NC(N)=O)cc1,-17,-5,4,3879,-1.1,nt,0
O=C1CCCCC1Oc1ccc2ccc(=O)oc2c1 (centres undefined),-30,9,11,4103,1.3,4,3
CC(=O)CCC(=O)N1CCCC(N2CCN(c3cccc(Cl)c3)CC2)C1 (centres undefined),-21,13,5,3682,3.5,10,11
CCCc1nnc(NC(=O)c2cccnc2)s1,nt,9,5,5857,3.6,-14,5
Cc1ccc(OCCN2CCNCC2)c([N+](=O)[O-])c1,-19,0,-6,2182,4.1,10,3
S=c1[nH]nc(C2CCCCC2)n1/N=C/c1ccccc1Br,-26,nt,nt,3671,nt,-3,nt
CNC(=O)CSc1nnc(-c2cccs2)o1,-3,7,-1,8058,6.1,-2,3
COc1ccc(-c2cn[nH]c2-c2ccc(OCc3ccccc3)cc2O)cc1OC,7,-3,4,?,6.6,21,12

# Ordered by length of the SMILES (ascending): some entries from above.
SMILES,PrP 5UTR inh,Mtb hypoxia inh,Mtb hypoxia inh growth,Bead autofluor,Sa RN4220 lethal,BJeLR lethal,ugtP null kill
CCCc1nnc(NC(=O)c2cccnc2)s1,nt,9,5,5857,3.6,-14,5
COC(=O)c1cc(O)c(OCc2ccccc2)c(O)c1,-21,nt,nt,2397,-1.8,0,0
Cc1cc(C)cc(NS(=O)(=O)c2ccc(F)cc2)c1,-12,10,2,3495,7.8,1,6
COC(=O)CCC(=O)Nc1ccc2oc3c(c2c1)CCCC3,-15,7,6,3719,1.3,7,19
COc1ccccc1NC(=O)CSc1nnnn1-c1ccc(F)cc1,-8,8,-2,nt,2.4,-1,1
O=C(COC(=O)CN1C(=O)C2CC=CCC2C1=O)Nc1cc(C(F)(F)F)ccc1N1CCOCC1 (centres undefined),-8,4,4,8740,5.1,-8,7
